KCNQ2 enhance = potentiators of rat KCNQ2 potassium channel. Potassium voltage-gated channel subfamily KQT member 2 (Rattus norvegicus), O88943. CHO-K1 KCNQ2, FluxOR thallium flux fluorescence; stronger effect = higher value. B-score at 10 µM. actives 0.54% (n = 310,000). AID 2239, 2010;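 active means fluorescence ratio B-score at least 3 SD of library B-scores, with initial fluorescence B-score within 3 SD, cut at about 5.3 in these data; same plate scores as AID 2156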;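 further: B-score of peak minus minimum over baseline fluorescence ratio after K+ and Tl+ stimulus; positive B-score means potentiation of KCNQ2 with more thallium influx and brighter signal; only the inactives scoring about 0 or higher are listed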
Target sequence (O88943 whole entry, looked up): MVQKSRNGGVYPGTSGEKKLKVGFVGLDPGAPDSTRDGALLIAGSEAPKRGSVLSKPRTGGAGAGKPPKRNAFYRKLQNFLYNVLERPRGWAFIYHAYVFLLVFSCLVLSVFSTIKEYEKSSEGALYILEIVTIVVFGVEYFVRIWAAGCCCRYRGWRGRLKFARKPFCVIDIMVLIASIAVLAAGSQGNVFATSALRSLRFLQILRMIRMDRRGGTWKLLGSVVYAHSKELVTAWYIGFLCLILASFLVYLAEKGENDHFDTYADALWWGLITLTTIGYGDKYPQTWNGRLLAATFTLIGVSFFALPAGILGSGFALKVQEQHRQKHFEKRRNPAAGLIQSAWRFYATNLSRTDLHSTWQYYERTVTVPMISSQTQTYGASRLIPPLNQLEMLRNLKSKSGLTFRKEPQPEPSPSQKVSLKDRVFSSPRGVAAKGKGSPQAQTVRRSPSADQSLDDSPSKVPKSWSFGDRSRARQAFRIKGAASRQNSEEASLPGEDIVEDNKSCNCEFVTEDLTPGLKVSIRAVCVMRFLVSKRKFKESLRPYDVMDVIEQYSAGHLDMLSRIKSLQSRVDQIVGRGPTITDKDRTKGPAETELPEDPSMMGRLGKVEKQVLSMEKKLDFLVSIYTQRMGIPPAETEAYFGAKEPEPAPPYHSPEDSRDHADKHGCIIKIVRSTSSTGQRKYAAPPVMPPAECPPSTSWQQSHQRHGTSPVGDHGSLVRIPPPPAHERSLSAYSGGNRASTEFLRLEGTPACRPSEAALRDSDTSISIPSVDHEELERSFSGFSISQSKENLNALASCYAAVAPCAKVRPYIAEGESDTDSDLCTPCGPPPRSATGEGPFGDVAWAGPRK
KCNQ2 enhance baseline = second read-out of KCNQ2 enhance, no call of its own (marks repeat the call); B-score; compound at 10 µM; measured here: initial fluorescence intensity artifact check;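 brightness before thallium and not channel activity; 0 = typical well and far values either way flag optical interference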
An asterisk follows results filed as active. Only part of the results is shown. The share of hits here may be higher or lower than overall.

#	Molecule	KCNQ2 enhance	KCNQ2 enhance baseline
1	Cc1cccc(C)c1NC(=O)CN(C)CC(=O)Nc1cc(Cl)ccc1C#N	0.85	-0.12
2	OCCN(CCO)Cc1csc2ccccc12	0.69	-0.11
3	Cn1c(=O)c2c(nc(CN3CCC(C(N)=O)CC3)n2Cc2c(Cl)cccc2Cl)n(C)c1=O	0.13	-1.8
4	CN(C)c1ccc(/C=N\Nc2nc(-c3ccccc3)cc(=O)[nH]2)cc1	1.4	-1.1
5	COc1cc(/C=N/NC(=O)NC2CCCCC2)ccc1O	0.83	-0.68
6	COc1ccc(C(C)NC(=S)NC2CCCCC2)cc1OC (stereo unspecified)	1.9	-0.77
7	COCCN(CCOC)S(=O)(=O)c1ccc(C(=O)NCCCN2CCOCC2)cc1	0.07	-0.88
8	CC(C)(C)C(=O)C[n+]1ccccc1	0.71	-0.53
9	Cc1cccc(NC(=O)c2nc[nH]c2C(=O)NCC(=O)OC(C)(C)C)c1	0.13	1.1
10	COc1cc(NC(=O)NCC2CCN(Cc3ccccc3F)CC2)cc(OC)c1	0.99	-0.05

#	Molecule	KCNQ2 enhance	KCNQ2 enhance baseline
11	Cc1ccsc1/C=N/NC(=S)NCc1ccccc1	0.07	0
12	COc1ccc(C(=O)NCCn2nc(C)cc2C)cc1OC1CCN(C(C)=O)CC1	0.37	-1
13	O=[N+]([O-])c1ccc2nonc2c1Nc1ccccc1	0.24	1.8
14	COc1ccc(C(=O)COC(=O)CCCC(=O)NC2CCCCC2)cc1	0.37	0.01
15	CC(=O)NNC(=O)c1ccncc1	1.1	0.33
16	Cc1ccc(OCCC(=O)OCC(=O)Nc2ccc3c(c2)OCO3)cc1	0.23	0.02
17	Cc1onc(-c2c(Cl)cccc2Cl)c1C(=O)NNC(=O)c1c(-c2c(Cl)cccc2Cl)noc1C	1.2	-0.38
18	Cc1ccc(NC(=O)C2CCCN2C(=O)OCc2ccccc2)cc1F (stereo unspecified)	0.93	0.23
19	CCOCCc1nnc(NC(=O)c2cccs2)s1	0.81	-0.47
20	Cc1ccc(N(C(C)C(=O)N2CCN(Cc3ccccc3)CC2)S(C)(=O)=O)cc1 (stereo unspecified)	1.4	0.08

#	Molecule	KCNQ2 enhance	KCNQ2 enhance baseline
21	COc1cc(NC(=O)Cn2cnc(S(=O)(=O)N3CCCC3)c2)cc(OC)c1OC	0.03	1.3
22	CC1(S(=O)(=O)O)CC(=O)c2ccccc2C1=O (stereo unspecified)	0.3	1.4
23	CCn1cc(C2=NC(C(C)C)CO2)c2ccccc21 (stereo unspecified)	0.27	0.06
24	Cc1cccc(NC(=O)CSc2nnc(CNC(=O)c3ccc(S(=O)(=O)N(C)C)cc3)n2-c2ccc(F)cc2)c1	0.04	0.24
25	CC(C)c1onc(C(=O)N2CCCCC2)c1[N+](=O)[O-]	0.3	0.35
26	c1coc(-c2ccnc(-c3ccncc3)n2)c1	1.9	-0.17
27	Cc1cccc(C)c1OCc1nnc(NC(=O)CSc2ccc(Cl)cc2)s1	0.37	-0.16
28	COc1cc(OC)c(C(=O)NNC(=O)CN(C)S(=O)(=O)c2ccc(Cl)cc2)cc1OC	0.39	1.6
29	CCOC(=O)Cc1nnc(NC(=O)CSc2nc3ccccc3[nH]2)s1	1.6	-0.35
30	COc1ccccc1CNC(=O)CCN1C(=O)COc2ccc(C)cc21	0.04	0.03

#	Molecule	KCNQ2 enhance	KCNQ2 enhance baseline
31	Cc1nc(Nc2nc3c(c(=O)[nH]2)CCC3)nc2ccccc12	1.8	0.19
32	CC(=O)Nc1ccc(OCC(O)CN2CCN(c3ccc(Cl)cc3)CC2)cc1 (stereo unspecified)	1.3	0
33	Nc1ccc(S(=O)(=O)Nc2ccc(Cl)nn2)cc1	0.68	-0.03
34	Cc1ccc(-n2c(SCC(N)=O)nc(O)cc2=O)cc1	0.03	-3
35	OCCCn1c(C2CCCN2c2nc(-c3ccc(Cl)cc3)cs2)nc2cc(Cl)c(Cl)cc21 (stereo unspecified)	0.68	1.7
36	C=CCCC(=O)NC1CC(C)(C)Cc2c1cnn2-c1cccc(F)c1 (stereo unspecified)	0.06	0.99
37	CC(=O)NCc1nnc2c3ccccc3c(-c3ccccc3)nn12	0.49	-0.04
38	C/C(N)=C(/C#N)C(=O)COC(=O)c1ccc(C)c(S(=O)(=O)N2CCCCC2)c1	2.1	-0.66
39	Cc1cccc(NC(=O)Nc2ccccc2[N+](=O)[O-])n1	0.5	-0.5
40	Cc1cccc(NC(=O)c2cc(NC(=O)c3ccco3)ccc2N2CCCCC2)c1	0.32	1.8

4 compounds from above, arranged by the value under KCNQ2 enhance baseline, lowest first:
#	Molecule	KCNQ2 enhance	KCNQ2 enhance baseline
34	Cc1ccc(-n2c(SCC(N)=O)nc(O)cc2=O)cc1	0.03	-3
38	C/C(N)=C(/C#N)C(=O)COC(=O)c1ccc(C)c(S(=O)(=O)N2CCCCC2)c1	2.1	-0.66
32	CC(=O)Nc1ccc(OCC(O)CN2CCN(c3ccc(Cl)cc3)CC2)cc1 (stereo unspecified)	1.3	0
35	OCCCn1c(C2CCCN2c2nc(-c3ccc(Cl)cc3)cs2)nc2cc(Cl)c(Cl)cc21 (stereo unspecified)	0.68	1.7

Continued.
#	Molecule	KCNQ2 enhance	KCNQ2 enhance baseline
41	Cc1cc(C)n2nc(C(=O)N3CCCC(Nc4ccc(F)c(F)c4)C3)cc2n1 (stereo unspecified)	0.24	-0.78
42	O=C(NCCc1ccccn1)c1ccc(NS(=O)(=O)c2ccc(F)cc2)cc1	0.06	0.37
43	O=C(c1cccnc1)N1CCN(S(=O)(=O)c2cccc(Cl)c2)CC1	1.3	-0.79
44	CC(C)CC(=O)Nc1nnc(SCC(=O)NC2CCCCC2)s1	0.34	1.1
45	CC1(C)CC(NC(=O)C(=O)NCCc2ccc(Cl)cc2)CC(C)(C)N1	0.58	0.25
46	CCOC(=O)N1CCN(C(=O)CCc2cc(OC)c(OC)c(OC)c2)CC1	0.07	-0.64
47	CCN(CC)S(=O)(=O)c1ccc(C)c(NC(=O)COC(=O)[C@@H]2CCCN2C(=O)c2cccs2)c1	0.58	0.32
48	CC1CCN(S(=O)(=O)c2cnc(Cl)c(Br)c2)CC1	0.49	-0.77
49	CCc1ccc(/C=C2\SC(=S)N(CCC(=O)NC3=NCCS3)C2=O)cc1	0.93	0.08
50	CCCCN(C(=O)CCCc1nc2ccccc2s1)c1c(N)n(CCCC)c(=O)[nH]c1=O	1.2	0.11

#	Molecule	KCNQ2 enhance	KCNQ2 enhance baseline
51	O=C(Nc1nc2ccc(F)cc2s1)c1cccs1	0.94	0.23
52	COc1ccc(-n2nnnc2CNC(=O)C(=O)c2c(C)[nH]c3ccccc23)cc1	1.7	-0.05
53	COc1ccc2oc(=O)c(C(=O)NC(C)c3ccccc3)cc2c1 (stereo unspecified)	2.1	0
54	Cc1nnc(NC(=O)c2nc(S(=O)(=O)Cc3ccccc3)ncc2Cl)s1	14*	0.01*
55	COc1ccc(NC(=O)CCCn2cnc3ccccc3c2=O)c(OC)c1	1.1	-0.22
56	Cc1ccnc(NS(=O)(=O)c2ccc(NC(=O)C3CC=CCC3C(=O)O)cc2)n1 (stereo unspecified)	0.15	-0.09
57	CC1=NN(C(=O)c2ccc(Cn3nc(C)c(Br)c3C)cc2)C(O)(C(F)(F)F)C1 (stereo unspecified)	13*	-1.9*
58	CCNC(=S)NNC(=O)c1ccc2ncccc2c1	0.41	-0.94
59	O=C(NCc1cccnc1)c1nn2cccnc2c1Cl	0.05	0.63
60	NC(=O)C1CCN(c2cc(Cl)nc(N)n2)CC1	0.07	-0.5

#	Molecule	KCNQ2 enhance	KCNQ2 enhance baseline
61	Cc1nc2ccccc2nc1N1CCOCC1	0.83	-1.2
62	Cc1c(Br)c([N+](=O)[O-])nn1CC(=O)Nc1c(C)n(C)n(-c2ccccc2)c1=O	0.14	-0.08
63	CCCNC(=O)c1oc2ccc3c(c2c1C)C(O)CC(C)(C)O3 (stereo unspecified)	1.1	-0.38
64	O=C(CN1CCN(c2ccccc2)CC1)NC(=O)NCc1ccco1	0.23	1.4
65	CC(=O)Nc1ccc(S(=O)(=O)NC2=NCN(CCOC(=O)c3ccccc3)CN2)cc1	0.65	-1.3
66	O=C(CN(C(=O)CCC(=O)Nc1nccs1)c1ccc(F)c(Cl)c1)NCc1ccco1	0.09	0
67	Cc1c(Br)ccc(NC(=O)CCN2C(=O)C3C4CCC(C4)C3C2=O)c1C (stereo unspecified)	0.81	0.49
68	Nc1ncnc(Nc2cccc(C(F)(F)F)c2)n1	1.5	-1.6
69	COc1ccccc1NC(=O)Cc1noc(CSc2nnc(C)s2)n1	0.71	-0.01
70	OCCCN=C1CCCc2c1[nH]c1ccc(Cl)cc21	0.65	2.8

#	Molecule	KCNQ2 enhance	KCNQ2 enhance baseline
71	O=C(NC1CC1)c1ccc(COc2ccc(F)cc2)o1	0.01	1.7
72	COCCNC(=O)C(c1cccs1)N(Cc1ccccc1)C(=O)Cn1nnc2ccccc21 (stereo unspecified)	0.38	-0.41
73	Cc1cc(-c2ccccc2)nc2c(Br)c(C(=O)O)nn12	0.18	0.55
74	COc1cc(C(=O)NCc2nnc(SCC(=O)N3CCCc4ccccc43)o2)cc(OC)c1OC	0.49	-1.2
75	CC(C)(C)OC(=O)NCCC(=O)N/N=C/c1ccc2ncccc2c1	0.01	1.8
76	CCN(C(=O)CCC(=O)N(CC)c1ccccc1)c1ccccc1	1	0.84
77	COc1ccc(C2CC(C(F)(F)F)n3nc(CO)c(Cl)c3N2)cc1OC (stereo unspecified)	0.3	-0.03
78	COCCNc1oc(/C=C/c2ccccc2)nc1C#N	1.2	-1.2
79	O=C(NCCN1C(=O)C2C3C=CC(C3)C2C1=O)N1CCCCC1 (stereo unspecified)	0.06	2.3
80	CN(C)S(=O)(=O)N1CCN(S(=O)(=O)N(C)C)CC1	2.1	-0.21

#	Molecule	KCNQ2 enhance	KCNQ2 enhance baseline
81	Nc1nc2nc(-c3ccccc3)cc(C(F)(F)F)c2s1	2.6	0.8
82	CCn1c(C(C)NC(=O)c2cccs2)n[nH]c1=S (stereo unspecified)	0.44	-0.04
83	COc1ccccc1N1CC(C(=O)Nc2nnc(SCC(=O)NC(C)C)s2)CC1=O (stereo unspecified)	1.4	-0.61
84	CCOc1ccc(S(=O)(=O)Nc2cccc(OC)c2)cc1	1.2	-1.1
85	COc1ccc(OC)c(C(O)c2coc3ccc(O)c(CN4CCOCC4)c23)c1 (stereo unspecified)	0.02	-0.99
86	Cc1ccc2nc3c(cc(S(=O)(=O)c4ccccc4)c(=N)n3Cc3ccco3)c(=O)n2c1	0.21	-0.01
87	Cc1ccc(NC(=O)c2cccc(F)c2)cc1S(=O)(=O)N1CCCCCC1	0.63	1.4
88	COCCN(C(=O)COC(=O)/C=C/c1cccs1)c1c(N)n(Cc2ccccc2)c(=O)[nH]c1=O	0.96	-1.1
89	O=[N+]([O-])c1cc(CS(=O)(=O)Oc2ccc(Cl)cc2)c(O)c([N+](=O)[O-])c1	2.8	-0.38
90	Fc1ccccc1N1CCN(Cc2cnc(Cl)s2)CC1	0.28	0.01

#	Molecule	KCNQ2 enhance	KCNQ2 enhance baseline
91	Cc1cccc(NC2=CC(=O)OC(C)C2)c1 (stereo unspecified)	0.12	3.3
92	C=C(C)COc1ccc(-c2[nH]ncc2-c2ccc(Br)cc2)c(O)c1	0.13	-2.5
93	Cc1nn(C)cc1S(=O)(=O)Nc1ccc(C(F)(F)F)cc1	0.9	0.64
94	CCc1ccc(CN(C)C(=O)CC2C(=O)NCCN2Cc2ccoc2)cc1 (stereo unspecified)	0.01	-0.1
95	CC(=O)N1c2ccccc2CCc2ccc(N)cc21	0.18	0.27
96	O=C(Nc1ccccc1)/C(=C/c1cccnc1)NC(=O)c1ccco1	0.5	-1.6
97	O=C(Nc1ccc2snnc2c1)N1CCN(c2ccccc2)CC1	0.33	-0.92
98	COc1ccc(NC(=O)Nc2ccccc2C(N)=O)cc1OC	2.3	0.7
99	COc1ccccc1CNC(=O)CNCCc1ccc(OC)c(OC)c1	0.59	0.99
100	CCC(CC)C(=O)Nc1cc(OC)c(OC)cc1C(=O)O	0.23	0.2

#	Molecule	KCNQ2 enhance	KCNQ2 enhance baseline
101	Cc1c(C#N)c(NC(=O)CCl)n(Cc2cccs2)c1C	0.34	1.4
102	CC1(c2ccccc2)NC(=O)N(CC(=O)Nc2ccc(C(N)=O)cc2)C1=O (stereo unspecified)	1.2	-0.82
103	CCOc1ccc(C(C)=O)cc1CSc1nc2nc(C)cc(C)n2n1	1.8	-2.1
104	O=C(OCn1nnc2ccccc2c1=O)c1ccc(N2CCOCC2)c([N+](=O)[O-])c1	1.1	0.27
105	Cc1cccc(OCc2nc(-c3nonc3N)no2)c1C	0.04	1.1
106	CC(C)(C)C(=O)Nc1ccc(S(=O)(=O)N2CCCC2)cc1	1.1	-0.06
107	COc1ccc2nc(C(F)(F)Cl)c(C#N)c(N)c2c1	0.43	0.48
108	O=C(Nc1cccc2ncccc12)c1ccc(-c2ccc(Br)cc2)o1	2.4	0.1
109	NC(=O)c1ccc2nc(NC(=O)c3ccc(N)cc3)sc2c1	0.8	-1.6
110	O=C1/C(=C/c2cccs2)SC(=S)N1CCC(=O)N1CCCCC1CCO (stereo unspecified)	0.82	0.38
111	CCc1ccccc1N(CC(=O)NCc1ccco1)C(=O)CCC(=O)Nc1ccccn1	1.4	0.52
112	Nc1nc(NCC2CCCO2)nc(Nc2ccc(F)cc2)c1[N+](=O)[O-] (stereo unspecified)	0.29	0.14
113	CC1CCN(CC(=O)NCCc2ccc(F)cc2)CC1	0.77	1
